Cruzain noTriton: inhibitors of Trypanosoma cruzi cruzain without detergent; purified cruzain, Z-FR-AMC fluorescence, no detergent; actives 2.3% (n = 200,000); AID 1476; Potency, µM, inactives show max response, negative = inhibition, usual class: inhibitors; P25779;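 also: plate controls were enzyme without inhibitor for no effect and buffer without enzyme for full effect; nearly all actives have a fitted effect of over 40% in size; top concentration of the series not given in the record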
Target sequence (P25779 123-467 limits assumed): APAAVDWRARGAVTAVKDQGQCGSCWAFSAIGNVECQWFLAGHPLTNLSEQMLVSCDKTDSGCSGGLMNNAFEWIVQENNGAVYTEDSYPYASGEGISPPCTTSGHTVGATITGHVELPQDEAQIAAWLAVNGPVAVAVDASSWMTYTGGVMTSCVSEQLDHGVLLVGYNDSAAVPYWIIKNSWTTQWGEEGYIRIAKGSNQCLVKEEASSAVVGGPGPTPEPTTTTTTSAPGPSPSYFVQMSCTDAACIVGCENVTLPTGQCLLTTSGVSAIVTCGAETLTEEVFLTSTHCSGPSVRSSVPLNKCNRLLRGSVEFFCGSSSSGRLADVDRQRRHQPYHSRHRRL
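Detergent-free condition (0.00005% Triton X-100) in acetate buffer pH 5.5 with DTT. 1.5 nM enzyme and compound were pre-mixed 15 min, then 2 uM Z-FR-AMC substrate added; reaction progress from fluorescence change between first and third reads (60 s).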
RE007 growth inh: less growth of the S. pombe RE007 Vpr strain. S. pombe RE007 Vpr strain, BacTiter-Glo ATP luminescence, 24 h; control for the full effect not named in the record. Potency, µM (doses to about 92.2 µM), for inactives: at the top dose activity change, negative = less growth. actives 0.21% (n = 360,000). AID 651644; active = well fitted falling curve with a large enough effect; inconclusive = small, poorly fitted or top-dose-only effect; inactive = no such curve, though single readings can be large or run the other way;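 also: % is scaled to controls: 0 for no effect and ±100 for the full control effect; nearly all actives have a fitted effect of over 50% in size; the assay follows cell death caused by Vpr and the record does not say whether a fall means rescue or toxicity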
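Fission yeast RE007 carrying one integrated HIV-1 vpr copy, seeded at OD 0.01 in PMG+AL medium with 23 nL pinned compound. Grown 24 h at 30 degrees; viability read by BacTiter-Glo luminescence after 5 min.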
2A StopGo: lowers the luciferase signal of an FMDV 2A StopGo reporter | human cells with a luciferase reporter of 2A StopGo recoding; control for the full effect not named in the record | Potency, µM (highest dose often 57.9 µM), for the others: at the top dose signal change, negative = less light | actives 1.2% (n = 410,000); active = well fitted falling curve with a large enough effect; inconclusive = small, poorly fitted or top-dose-only effect; inactive = no such curve, though single readings can be large or run the other way; tested in HEK293T cells; also: % is scaled to controls: 0 for no effect and ±100 for the full control effect; nearly all actives have a fitted effect of over 45% in size; luciferase light after 4 h
Lassa entry inh: inhibitors of Lassa virus binding or cell entry; Lassa virus pseudotype entry inhibition, cell reporter; control for the full effect not named in the record; Potency, µM (top dose mostly 37.9 µM), inactives show at the highest dose activity change, negative = inhibition, hits mostly inhibitors; actives 1.2% (n = 300,000); active means well fitted inhibition curve with a large enough effect; inconclusive means small, poorly fitted or top-dose-only effect, or effect the other way; inactive means flat fitted curve, though single readings scatter; tested in HEK293 cells; also: % is scaled to controls: 0 for no effect and ±100 for the full control effect; nearly all actives have a fitted effect of over 50% in size; luciferase read-out
Cruzain Triton: inhibitors of Trypanosoma cruzi cruzain with detergent. P25779. purified cruzain, Z-FR-AMC fluorescence, 0.01% Triton. Potency, µM, inactives show max response, negative = inhibition, actives largely listed as inhibitors. actives 0.43% (n = 200,000);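 also: plate controls were neutral wells for no effect and buffer without enzyme for full effect; nearly all actives have a fitted effect of over 40% in size; top concentration of the series not given in the record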
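Compounds were screened in titration against cruzain (1.5 nM) with 0.01% Triton X-100 to counter colloidal aggregation. Activity was the AMC fluorescence increase over 60 s after adding 2 uM Z-FR-AMC at pH 5.5.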
Marburg entry inh: Marburg virus entry inhibition. Marburg virus pseudotyped entry inhibition, cell reporter; control for the full effect not named in the record; about a third of the inactives were read at about 46 µM. AID 540276. Potency, µM (top dose mostly 37.8 µM), inactives show top-dose activity change, negative = inhibition, most hits filed as inhibitors. actives 1.8% (n = 300,000); active = well fitted inhibition curve with a large enough effect; inconclusive = small, poorly fitted or top-dose-only effect, or effect the other way; inactive = flat fitted curve, though single readings scatter; tested in HEK293 cells; about a fifth of its hits are not listed in these tables; also: % is scaled to controls: 0 for no effect and ±100 for the full control effect; luciferase read-out
SARS PLP yeast: inhibitors of SARS-CoV papain-like protease in yeast; S. cerevisiae expressing SARS-CoV PLpro, growth rescue; control for the full effect not named in the record; Potency, µM (highest dose often 32.9 µM), for the others: at the top dose activity, positive = growth rescue; actives 0.19% (n = 330,000); AID 485353; active means well fitted rising curve with a large enough effect; inconclusive means small, poorly fitted or top-dose-only effect; inactive means no such curve, though single readings can be large or run the other way; also: 0% is about no effect; nearly all actives have a fitted effect of over 55% in size; growth read by luminescence after 48 h
NS1 inh: inhibitors of influenza NS1 protein function; actives 0.4% (n = 270,000); Potency, µM (top dose mostly 46.1 µM), without a hit: at the highest dose activity, positive = more growth; S. cerevisiae slowed by influenza A NS1, growth recovery by OD600; active means well fitted rising curve with a large enough effect; inconclusive means small, poorly fitted or top-dose-only effect; inactive means no such curve, though single readings can be large or run the other way; also: nearly all actives have a fitted effect of over 50% in size
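Read-out: OD600 growth recovery of NS1-expressing budding yeast. Cells grown overnight at 30C in -URA glucose medium, washed, resuspended and diluted 1:100 in 2% galactose assay medium, pH 6.0. Same strain lacking NS1 served as positive control.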
* marks the source's active call; other numbers are inactive results; ? = inconclusive; / = no result given; [ ] = dose if it differs, or a comment. Unless noted, calls follow the shape of the dose curve; as a rule, active = well fitted curve in the direction sought with a large enough effect; inconclusive = small, poorly fitted or top-dose-only effect, or another doubt; inactive = no such curve, though single readings can be large; an effect the other way counts as inactive or inconclusive. Potency is read from the fitted curve at half-maximal effect.

SMILES | Cruzain noTriton | RE007 growth inh | 2A StopGo | Lassa entry inh | Cruzain Triton | Marburg entry inh | SARS PLP yeast | NS1 inh
C=CCn1c(SCc2c(Cl)cccc2Cl)nnc1-c1cccnc1 | -9% | 2% | -6% | 6% | 0.1% | ? | -25% | -10%
COc1ccc(S(=O)(=O)N2CCCC2CNC(=O)C(=O)NCc2cccs2)cc1 (stereo not given) | / | 13% | -17% | -30% | / | ? | 3% | /
Cc1ccc(C)c(N2N=C(C(=O)O)CCC2=O)c1 | / | 10% | 0% | 10% | / | -3% | 0% | 5%
Cc1cnc(C(=O)OCC(=O)c2c[nH]c3ccccc23)cn1 | / | 9% | -11% | 2% | / | -7% | -2% | /
CCOc1cc2[nH]c(=S)n(CCN3CCCCC3C)c(=O)c2cc1OCC (stereo not given) | -7% | -10%[3.69 µM] | 3% | -1% | -13% | ? | -14% | 14%
CCc1cccc(NC(=O)Cn2nc(-c3ccc(OC)cc3)ccc2=O)c1 | -2% | / | -10% | ? | -5.9% | / | / | /
COc1ccc(N2CCN(C3CCCN(Cc4cccc(C)c4)C3)CC2)cc1 (stereo not given) | / | -7% | 21% | 21%[46.1 µM] | / | ? | 5% | -6%
CCOc1ccccc1C(=O)N[C@H](C(=O)NCc1ccccc1)C(C)C | / | -1% | 7% | 10% | / | 1%[46.1 µM] | -1% | /
Cc1ccc(C)c(OCc2cc(C(=O)N3C[C@@H](C)O[C@@H](C)C3)no2)c1 | / | -26% | -7% | 15% | / | ? | ? | -25%
CCOC(=O)C1=C(O)C(=O)NC(c2ccccc2)=C(OCC)C1 | -8% | -5% | -19% | 11% | -2.5% | 1% | -1% | 15%
O=C(CSc1nc2c(c(=O)[nH]1)CN(Cc1ccc3c(c1)OCO3)CC2)Nc1ccccc1Cl | 2% | / | 0% | 13%[46.1 µM] | -2.0% | 4%[46.1 µM] | / | /
CC(=O)Nc1ccc(NC(=O)c2nc(-c3ccccc3)oc2C)cc1 | / | -1% | -11% | -4%[46.1 µM] | / | -18%[46.1 µM] | -1% | /
CCc1ccccc1NC(=O)c1cnc2sc(N3CCOCC3)nn2c1=O | -1% | / | -29% | ? | 7.9% | / | / | /
O=C(O)CC1SC(=O)N(CC(=O)c2ccccc2)C1=O (stereo not given) | / | -24% | -10% | 14% | / | 15% | -5% | 12%
O=C(Cn1cc(C(=O)c2ccccc2)c2ccccc21)NCc1ccco1 | -5% | -9% | -9% | 1% | -3.1% | -14%[46.1 µM] | -1% | 0%
COc1ccc(CNC(=O)C2CCN(S(=O)(=O)c3ccccc3)CC2)cc1 | / | 0% | -12% | -1% | / | 8% | 3% | 1%
COc1ccc(OC)c(/C=C/C(=O)N2CCCc3ccccc32)c1 | / | -8% | 8% | ? | / | ? | -6% | /
Cc1cc(NC(=O)c2cc(-c3ccc(Br)cc3)on2)no1 | / | 2% | -5% | 0%[46.1 µM] | / | -1%[46.1 µM] | 0% | 1%
CCOC(=O)c1cccc(NC(=O)c2ccc3c(c2)C(=O)N(CC2CCCO2)C3=O)c1 (stereo not given) | / | -8% | ? | / | / | / | 17% | -4%
COCCNC(=O)Nc1ccc2nc(C)sc2c1 | -8% | 3% | 26% | 6% | -12% | ? | -10% | -8%
COC(=O)c1ccc2ccn(CC(=O)NC(C)C)c2c1 | 6% | 6% | 16% | -10% | 1.7% | 14% | 0% | 1%
COc1ccc(-c2nnc(SCC(=O)Oc3cccc(C)c3C)o2)cc1 | ? | / | -20% | 14%[46.1 µM] | -5.0% | -14%[46.1 µM] | / | /
CC/C(=N\OC(=O)c1ccc(OC(C)C)cc1)c1ccc(C)cc1 | -5% | 29% | 11% | ? | -1.0% | ? | -16% | -76%
O=C(NCCCCCCNC(=O)OCc1ccccc1)OCc1ccccc1 | / | -11% | -14% | 6% | / | ? | / | /
COc1cccc(CNC(=O)c2ccc(-c3nc(CS(=O)(=O)c4ccccc4)c(C)o3)cc2)c1 | 11% | / | ? | ? | -8.2% | / | / | /
N/C(=N\c1nc2ccccc2o1)NC(=O)c1ccccc1F | 0% | 4% | 28% | -11% | -3.0% | 52% | 6% | -6%
Cc1onc(-c2ccccc2Cl)c1C(N)=O | 9% | 6% | -6% | 10% | 0.4% | ? | -3% | 1%
COc1ccc(CNC(=O)COC(=O)c2ccc(S(=O)(=O)N3CCOCC3)cc2)cc1 | / | -13% | 3% | 4%[46.1 µM] | / | -1%[46.1 µM] | 21% | /
Cc1ccc(OCCCC(=O)NC2CCCCC2)cc1 | / | -4% | 1% | -14% | / | 8% | -3% | 1%
O=Cc1cn(Cc2c(F)cccc2Cl)nc1-c1ccccc1 | / | -3% | 10% | / | / | -3% | / | /
O=C(CNC(=O)C(c1ccccc1)c1ccccc1)N/N=C\c1ccc2c(c1)OCO2 | ? | 16% | 46%[activator] | ? | 0.6% | 21% | 9% | 13%
COC(=O)Nc1c(C)n(C)n(-c2ccccc2)c1=O | 2% | 14% | -2% | -11% | 2.8% | 10% | 10% | -39%
CN1CCN(C(=O)c2ccc(-n3cccc3)cc2)CC1 | -12% | -16% | 6% | -5% | 8.3% | 8% | -7% | 0%
COc1cc(NC(=O)c2cc(-c3ccccc3Cl)on2)cc(OC)c1OC | / | -1% | -1% | -19% | / | ? | -3% | 5%
CCc1ccc(NC(=O)C(C)OC(=O)c2cc(=O)[nH]c3ccc(S(=O)(=O)Nc4ccc(F)cc4)cc23)cc1 (stereo not given) | / | -7% | 17% | / | / | / | 0% | ?
CC(=O)c1ccc(NC(=O)CCc2c(C)nn(-c3ccc(N4CCCCC4)nn3)c2C)cc1 | -1% | / | 19% | 10%[46.1 µM] | -4.8% | / | / | /
Cc1ccc(C(=O)NNC2=Nc3cccc4cccc2c34)cc1 | -12% | 12% | 49%[activator] | -24% | -3.5% | -5% | -20% | 2%
Cc1ccc(C(=O)COC(=O)CSc2cccc3cccnc23)c(C)c1 | / | -17% | -14% | 14% | / | 13% | / | /
COc1cc(OC)c(NC(=O)c2c(N3CCCC3=O)c3cc(C)ccc3n2C)cc1Cl | -14% | / | -19% | 28%[46.1 µM] | -5.9% | / | / | /
CSCCC(N=C1NS(=O)(=O)c2ccccc21)C(=O)N1CCCC(C(N)=O)C1 (stereo not given) | / | -12% | 3% | -2% | / | 23% | 8% | /
COC(=O)c1ccc(Nc2nc(C)cc(C)n2)cc1 | -24% | 1% | 17% | 6% | 0.5% | -3% | 5% | -35%
O=S(=O)(c1ccc(=S)[nH]c1)N1CCCC1 | / | 12% | -7% | ? | / | 1% | 11% | /
Cc1cccc(-c2nnc3sc(-c4ccccc4C)nn23)c1 | 16% | 7% | 18% | -11% | -7.0% | ? | -1% | -90%
C/C(=N\OC(=O)c1ccc(F)cc1)c1sc(-c2ccccc2)nc1C | 2% | 4% | 35%[activator] | 9% | 2.6% | ? | 2% | -1%
CCN(CC)C(C(=O)NC1CCCCC1)c1ccc(C)cc1 (stereo not given) | / | -18% | 8% | 1% | / | 6%[46.1 µM] | 3% | /
COc1ccc2nc(N3CCCC(C(=O)NCCCN4C(C)CCCC4C)C3)sc2c1 (stereo not given) | / | 16% | 37%[activator] | ? | / | ? | 5% | -1%
Cc1cccc(SCc2noc(C(=O)NC(C)C)c2C(=O)O)c1 | 0% | 6% | -4% | / | 2.7% | / | -2% | 19%
O=c1ccc2cc(S(=O)(=O)N3CCN(c4ccccc4)CC3)ccc2o1 | -1% | -4% | -17% | 4% | 0.6% | 4% | 2% | -8%
O=c1[nH]c(=O)n(-c2cc(Br)c(O)c(Br)c2)cc1Br | / | 7% | 2% | / | / | / | 5% | 2%
CC1Nc2nc(N(C)C)[nH]c(=O)c2NC1C (stereo not given) | -9% | 1% | 13% | 3% | -2.5% | 24% | 5% | -13%
CCC(C)NS(=O)(=O)c1ccc(OCC(=O)N2CCN(CC)CC2)cc1 (stereo not given) | -15% | -1% | 20% | 2% | 1.5% | 2% | -11% | 5%
Cc1nnc(NC(=O)c2sc3ccccc3c2Cl)s1 | -2% | ? | -69% | 12µM* | -2.8% | ? | -17% | -237%
O=C(O)c1cccc(CSc2nnc(-c3ccco3)o2)c1 | -3% | 5% | / | -17% | 1.7% | -23% | 3% | -2%
COc1ccccc1CN1CCN(Cc2ccc(Cl)cc2)CC1 | / | 3% | -26% | 1%[46.1 µM] | / | 11µM* | 0% | /
Cc1cc(C(=O)COC(=O)/C=C/c2cccc(F)c2)c(C)n1C | / | 7% | 23% | -5% | / | 15%[46.1 µM] | 1% | /
COc1ccccc1C(=O)NCC(=O)N/N=C/c1cccc(Cl)c1 | / | 1% | -15% | -26% | / | ? | 3% | /
O=C(Cn1ncc2c3ccccc3n(Cc3ccccc3)c2c1=O)NCCCN1CCCC1=O | / | 15% | -18% | -5%[46.1 µM] | / | 18%[46.1 µM] | 0% | 4%
CCCCOc1ccc(N(CC(=O)NCCOC)C(=O)CCC(=O)Nc2ccccn2)cc1 | / | 29% | -13% | / | / | / | -6% | 0%
COc1ccc(NC(=O)C2CCN(C(=O)c3cccs3)CC2)c(OC)c1 | 15% | -4% | -2% | 13% | -3.9% | 27% | -6% | -3%
COC(=O)c1cccc(COC(=O)c2ccccc2NC(=O)c2ccco2)c1 | 3% | 16% | 10% | 0% | -1.7% | -3% | 0% | 3%
CC(O)[C@H]1CNC(=O)C(=O)N1CCC12CC3CC(CC(C3)C1)C2 (stereo not given in full) | / | 9% | -9% | / | / | / | 2% | -34%
Cc1c(C(=O)Nc2ccc3c(c2)OCCO3)oc2ccc(Br)cc12 | / | -3% | 10% | ? | / | 27% | -1% | /
CCCCCCc1c(C)[nH]c2nc3ccccc3n2c1=O | / | -5% | -8% | / | / | / | -5% | 0%

Compound activity from PubChem.

Random draw from the library, and some 4.7% of all compounds hit somewhere here.
